Cruzain Triton = inhibitors of Trypanosoma cruzi cruzain with detergent | P25779 | purified cruzain, Z-FR-AMC fluorescence, 0.01% Triton | Potency, µM, for the others: max response, negative = inhibition, hits mostly inhibitors | hit rate 0.43% among 200,000 | AID 1478;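 note: plate controls were neutral wells for no effect and buffer without enzyme for full effect; nearly all actives have a fitted effect of over 40% in size; top concentration of the series not given in the record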
Target sequence (P25779 123-467 limits assumed): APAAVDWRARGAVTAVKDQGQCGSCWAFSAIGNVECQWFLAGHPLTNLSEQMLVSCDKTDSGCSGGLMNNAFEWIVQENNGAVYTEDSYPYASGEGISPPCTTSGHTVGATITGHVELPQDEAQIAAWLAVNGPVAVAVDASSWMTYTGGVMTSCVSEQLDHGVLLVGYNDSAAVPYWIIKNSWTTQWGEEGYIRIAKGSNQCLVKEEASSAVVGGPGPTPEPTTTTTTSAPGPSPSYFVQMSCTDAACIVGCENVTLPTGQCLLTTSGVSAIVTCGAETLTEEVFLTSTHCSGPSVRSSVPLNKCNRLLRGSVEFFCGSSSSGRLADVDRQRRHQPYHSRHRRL
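Cysteine protease activity tested under reducing, mildly acidic conditions (100 mM sodium acetate pH 5.5, 5 mM DTT) plus 0.01% Triton X-100. Cruzain 1.5 nM; substrate Z-FR-AMC 2 uM; 15 min compound preincubation at room temperature.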
SARS PLpro yeast = blocks SARS-CoV papain-like protease in a yeast assay. AID 485353. hit rate 0.19% among 330,000. Potency, µM (top dose mostly 32.9 µM), inactives show at the top dose activity, positive = growth rescue. S. cerevisiae expressing SARS-CoV PLpro, growth rescue; control for the full effect not named in the record; active means well fitted rising curve with a large enough effect; inconclusive means small, poorly fitted or top-dose-only effect; inactive means no such curve, though single readings can be large or run the other way; note: 0% is about no effect; nearly all actives have a fitted effect of over 55% in size; growth read by luminescence after 48 h
MARV entry inh = inhibitors of Marburg virus binding or cell entry; Marburg virus pseudotyped entry inhibition, cell reporter; control for the full effect not named in the record; about a third of the inactives were read at about 46 µM; Potency, µM (top dose mostly 37.8 µM), for the others: top-dose activity change, negative = inhibition, hits mostly inhibitors; hit rate 1.8% among 300,000; active = well fitted inhibition curve with a large enough effect; inconclusive = small, poorly fitted or top-dose-only effect, or effect the other way; inactive = flat fitted curve, though single readings scatter; tested in HEK293 cells; about a fifth of its hits are not listed in these tables; note: % is set by controls: 0 for no effect and ±100 for the full control effect; luciferase read-out
RE007 growth inh = less growth of the S. pombe RE007 Vpr strain. S. pombe RE007 Vpr strain, BacTiter-Glo ATP luminescence, 24 h; control for the full effect not named in the record. Potency, µM (highest dose often 92.2 µM), for inactives: at the top dose activity change, negative = less growth. AID 651644. hit rate 0.21% among 360,000; active = well fitted falling curve with a large enough effect; inconclusive = small, poorly fitted or top-dose-only effect; inactive = no such curve, though single readings can be large or run the other way;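 note: % is set by controls: 0 for no effect and ±100 for the full control effect; nearly all actives have a fitted effect of over 50% in size; the assay follows cell death caused by Vpr and the record does not say whether a fall means rescue or toxicity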
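Fission yeast strain RE007, carrying one chromosomally integrated HIV-1 vpr copy, was seeded at OD 0.01 in PMG+AL medium with 23 nL pinned compound. After 24 h at 30 °C and 99% humidity, viability was read by BacTiter-Glo luminescence.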
Lassa entry inh = Lassa virus entry inhibition; Lassa virus pseudotype entry inhibition, cell reporter; control for the full effect not named in the record; Potency, µM (doses to about 37.9 µM), inactives show top-dose activity change, negative = inhibition, actives largely listed as inhibitors; hit rate 1.2% among 300,000; AID 540256; active means well fitted inhibition curve with a large enough effect; inconclusive means small, poorly fitted or top-dose-only effect, or effect the other way; inactive means flat fitted curve, though single readings scatter; tested in HEK293 cells; note: % is set by controls: 0 for no effect and ±100 for the full control effect; nearly all actives have a fitted effect of over 50% in size; luciferase read-out
StopGo reporter = lowers the luciferase signal of an FMDV 2A StopGo reporter | Potency, µM (doses to about 57.9 µM), for inactives: top-dose signal change, negative = less light | human cells with a luciferase reporter of 2A StopGo recoding; control for the full effect not named in the record | AID 1159524 | hit rate 1.2% among 410,000; active = well fitted falling curve with a large enough effect; inconclusive = small, poorly fitted or top-dose-only effect; inactive = no such curve, though single readings can be large or run the other way; tested in HEK293T cells; note: % is set by controls: 0 for no effect and ±100 for the full control effect; nearly all actives have a fitted effect of over 45% in size; luciferase light after 4 h
NS1 inh = influenza NS1 inhibition | S. cerevisiae slowed by influenza A NS1, growth recovery by OD600 | Potency, µM (highest dose often 46.1 µM), for the others: at the top dose activity, positive = more growth | hit rate 0.4% among 270,000 | AID 2326; active means well fitted rising curve with a large enough effect; inconclusive means small, poorly fitted or top-dose-only effect; inactive means no such curve, though single readings can be large or run the other way; note: nearly all actives have a fitted effect of over 50% in size
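In this qHTS, NS1 from influenza A is expressed in budding yeast, where it slows growth. Cells are switched from glucose to 2% galactose medium (pH 6.0, -URA), treated with compound, and growth recovery is read at OD600.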
Cruzain noTriton = inhibitors of Trypanosoma cruzi cruzain without detergent | P25779 | purified cruzain, Z-FR-AMC fluorescence, no detergent | Potency, µM, without a hit: max response, negative = inhibition, usual class: inhibitors | hit rate 2.3% among 200,000 | AID 1476;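 note: plate controls were enzyme without inhibitor for no effect and buffer without enzyme for full effect; nearly all actives have a fitted effect of over 40% in size; top concentration of the series not given in the record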
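Detergent-free condition (0.00005% Triton X-100) in acetate buffer pH 5.5 with DTT. 1.5 nM enzyme and compound were pre-mixed 15 min, then 2 uM Z-FR-AMC substrate added; reaction progress from fluorescence change between first and third reads (60 s).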
* = called active by the depositor; ? = inconclusive; / = not tested or not shown; & = joins results of further samples; [ ] = dose if it differs, or a comment. Unless noted, calls come from the whole dose curve; as a rule, active = well fitted curve in the direction sought with a large enough effect; inconclusive = small, poorly fitted or top-dose-only effect, or another doubt; inactive = no such curve, though single readings can be large; an effect the other way counts as inactive or inconclusive. Potency is the fitted concentration of half-maximal effect.

SMILES	Cruzain Triton	SARS PLpro yeast	MARV entry inh	RE007 growth inh	Lassa entry inh	StopGo reporter	NS1 inh	Cruzain noTriton
CC(Cc1cccs1)NC(=S)Nc1ccc(Cl)cc1 (stereo not given)	-8.7%	-82%	?	2%	-4%	21%	-50%	-16%
O=C(NCc1nnc2c(C(F)(F)F)cc(Cl)cn12)c1cccnc1	/	2%	/	2%	/	-10%	0%	/
Cc1sc(NC(=O)c2cc(-c3ccc(Cl)cc3)nc3ccccc23)c(C(N)=O)c1C	-3.9%	0%	?	-1%	?	?	0%	13µM*
CCCCNC(=O)Cc1ccc(C)cc1	-3.1%	-3%	-12%	1%	1%	-9%	7%	16%
CC(C)[C@H](NC(=O)N1CCn2c1nc1ccccc12)C(=O)NC1CCCCC1	/	-5%	/	-8%	/	-19%	-27%	/
Cc1oc2ncn(CC(C)C)c(=O)c2c1C(=O)NCCc1ccccc1	-5.1%	/	/	/	-5%[46.1 µM]	-13%	/	-18%
COc1cc(Cl)ccc1OCc1cc(C(=O)N(C)Cc2cccc3cnccc23)no1	/	-12%	?	-2%	?	?	-67%	/
CCCCCCC(C)(C)c1ccc([C@@H]2C[C@H](O)CC[C@@H]2CCCO)c(O)c1	-5.0%	/	13µM*	/	/	?	/	?
COc1ccccc1C(=O)Nc1ccc(S(=O)(=O)N2CCOCC2)cc1	-2.3%	-8%	-2%	1%	-7%	-13%	-9%	9%
Cc1ccc(NC(=O)C(=O)NCc2ccc(/C=N/NC(=O)c3c(C)nc4ccccn34)o2)cc1	-9.3%	0%	1%	-13%	24%	14%	-11%	?
O=C(/C=C/c1ccccc1)Nc1cc(S(=O)(=O)N2CCOCC2)ccc1N1CCOCC1	/	-2%	-17%	?	3%	1%	/	/
Cc1cc(S(=O)(=O)NCc2ccccc2)ccc1OCC(=O)NCc1ccccn1	/	-1%	-5%[46.1 µM]	5%	?	49%[activator]	0%	/
O=C(Cc1ccc(-n2c(=O)c3ccccc3n(Cc3ccc(F)cc3)c2=O)cc1)NCC1CCCO1 (stereo not given)	-2.0%	12%	2%	-5%	11%	-26%	-11%	6%
COCCN(C(=O)CSc1nncn1-c1ccccc1)c1c(N)n(Cc2ccccc2)c(=O)[nH]c1=O	1.5%	1%	6%	-1%	0%	-3%	4%	-5%
Cc1ccc(N(C)S(=O)(=O)c2csc(C(N)=O)c2)cc1C	/	0%	/	-1%	/	-21%	-3%	/
Cc1ccc(-n2nc(C)c3c2OC(N)=C(C#N)C3c2ccco2)cc1 (stereo not given)	6.7%	-1%	4%	-17%	15%	55%[activator]	?	0%
O=C(NC1CCCC1)C(c1ccc(F)cc1)N(Cc1ccc(Cl)cc1)C(=O)CCl (stereo not given)	-2.4%	-10%	-10%	-16%	2%	?	2%	-14%
CCCN(CCC)C(=O)NC1CC(=O)N(c2ccc(OC)cc2)C1 (stereo not given)	-0.4%	-20%	?	0%	15%	-7%	-5%	6%
CC(C)CCOP(=O)(c1ccc(N(C)C)cc1)C(O)c1ccccc1 (stereo not given)	/	-2%	1%[46.1 µM]	-7%	12%	11%	7%	/
COc1ccc(Cc2nc3ccccc3n2Cc2ccccc2C)cc1	-9.3%	/	-17%[46.1 µM]	/	?	?	/	-3%
O=C(Nc1ccc2oc(-c3ccc4ccccc4c3)nc2c1)c1cc(Br)ccc1Cl	-0.1%	/	/	/	-1%[46.1 µM]	46%[activator]	/	-1%
Cc1ccc(-c2cccc(C(=O)NCCc3ccccc3)n2)c2ccccc12	-3.3%	5%	23%	-10%	9%	7%	18%	-18%
CC1(C)CN2C(=O)c3ccccc3C2(C)S1 (stereo not given)	/	0%	1%[46.1 µM]	3%	9%	-6%	/	/
CN(C)S(=O)(=O)N1CCN(CC(O)COc2ccc(C(=O)c3ccccc3)cc2)CC1 (stereo not given)	-1.9%	0%	-18%[46.1 µM]	15%	?	?	-8%	11%
COc1ccc(-n2nnnc2SCC(=O)c2cc3ccccc3o2)cc1	-3.2%	-1%	26%	-1%	?	-13%	-21%	-15%

Next records.
SMILES	Cruzain Triton	SARS PLpro yeast	MARV entry inh	RE007 growth inh	Lassa entry inh	StopGo reporter	NS1 inh	Cruzain noTriton
COc1ccc(CNC(=O)C(NS(=O)(=O)c2ccc3c(c2)CCCN3C(C)=O)C(C)C)cc1 (stereo not given)	-8.2%	5%	-4%	5%	?	?	-4%	-2%
COc1cccc(-c2ccc(NC(=O)C3CCCN(Cc4cnc(C)n4C)C3)cc2)c1 (stereo not given)	/	2%	?	8%	?	-21%	-5%	/
CC(C)C(c1nnnn1CCc1ccccc1)N1CCOCC1 (stereo not given)	3.6%	-7%	17%[46.1 µM]	-5%	15%	-19%	4%	10%
CN1CCN(Cc2nc3ccccc3n2C)CC1CCO (stereo not given)	/	3%	/	-5%	/	-10%	14%	/
COc1ccc(C(=O)N2CCN(S(=O)(=O)c3ccccc3)CC2)c(OC)c1	-1.9%	-6%	6%	-2%	2%	3%	6%	8%
Cc1ccc(Nc2n[nH]c(C)c2[N+](=O)[O-])cc1C	-1.4%	-44%	-23%	-5%	?	-29%	-1%	-5%
O=C(COC(=O)c1cccc(S(=O)(=O)N2CCCC2)c1)Nc1ccccc1	/	-5%	-3%[14.2 µM]	-5%	8%	4%	/	/
Cn1c(=O)c([N+](=O)[O-])c(NCc2ccccc2)c2ccccc21	-3.2%	-6%	-15%	-6%	1%	0%	5%	-7%
COCCNC(=O)CSc1nc2cc3c(cc2c(=O)n1CCCC(=O)NCCc1ccc(OC)c(OC)c1)OCO3	1.6%	0%	-12%&-12%[46.1 µM]	9%	?	0%&-9%	/	9%
N/C(=N\OC(=O)c1cc(Cl)ccc1Cl)c1cccnc1	-18%	2%	?	-5%	?	32%[activator]	-15%	6%
Cc1ccc(NC(=O)CN(C)c2ccc(S(=O)(=O)N3CCN(C)CC3)cn2)cc1	-1.6%	9%	-8%	-10%	-5%	-25%	-5%	-7%
Cc1onc(-c2ccccc2)c1C(=O)NCc1cccc(Cl)c1	/	-1%	4%[46.1 µM]	-24%	-1%	10%	-43%	/
c1ccc2nc(N3CCCC3)c(N3CCCC3)nc2c1	-6.2%	-6%	-2%[46.1 µM]	-4%	5%	-20%	-12%	7%
CCCCC(=O)Nc1ccc(C(=O)Nc2ccc(S(=O)(=O)N3CCCC3)cc2)cc1	0.8%	10%	2%	-5%	1%	-6%	4%	2%
O=C(Nc1ccccc1-c1nc2ccccc2[nH]c1=O)c1cccs1	/	7%	-18%[46.1 µM]	0%	-14%[46.1 µM]	12%	4%	/
Cc1cccc(-n2nc(C)c3c(C(=O)O)cc(-c4cccs4)nc32)c1	/	1%	-5%[46.1 µM]	-6%	1%	?	/	/
Cc1cccc(C)c1NC(=O)CN1C(=O)S/C(=C\c2cccn2C)C1=O	3.5%	-6%	?	10%	0%	/	9%	?
CN(C)C(=O)c1ccc(OCC(F)(F)F)nc1	/	1%	7%[46.1 µM]	2%	-4%[46.1 µM]	-21%	1%	/
COc1cccc(COC(=O)c2cc(S(=O)(=O)N3CCCCC3)ccc2N2CCOCC2)c1OC	/	-4%	4%[46.1 µM]	-8%	7%	-23%	/	/
O=C(CNC(=O)c1ccc(Cl)cc1Cl)OCn1nnc2ccccc2c1=O	/	-3%	8%	-12%	1%[46.1 µM]	0%	/	/
Cn1c(=O)[nH]c(Nc2ccccc2)c([N+](=O)[O-])c1=O	/	0%	8%[46.1 µM]	-7%	-13%	2%	/	/
Cc1cccc(Cn2c(SCc3ccc(C(=O)NC4CCCC4)cc3)nc3ccncc32)c1	-2.6%	/	?	/	-4%[46.1 µM]	-19%	/	1%
O=C(CSc1nc2ccccc2n1Cc1ccccc1)N/N=C/c1ccccc1C(=O)O	/	0%	/	-3%	/	-8%	9%	/
O=C(CCCN1C(=O)/C(=C\c2ccco2)SC1=S)Nc1ccc(O)cc1C(=O)O	/	5%	-7%[46.1 µM]	-5%	-9%	-10%	?	/
Cc1nc(OCc2ccccc2)c2sc3nc4c(cc3c2n1)COC(C)(C)C4	-6.6%	-1%	-9%	/	/	-4%	10%	?

New compounds follow.
SMILES	Cruzain Triton	SARS PLpro yeast	MARV entry inh	RE007 growth inh	Lassa entry inh	StopGo reporter	NS1 inh	Cruzain noTriton
CC(C)c1cccc(C(C)C)c1NC(=O)COc1nncc2ccccc12	-1.2%	7%	?	-1%	3%	7%	11%	1%
COP(=O)(OC)/C(C=O)=N/Nc1ccc([N+](=O)[O-])cc1	/	3%	10%[46.1 µM]	13%	-28%[46.1 µM]	-19%	-1%	/
COc1ccc(CN(Cc2ccc(C(=O)O)cc2)C(=S)Nc2ccc(C)cc2)cc1OC	/	0%	5%[46.1 µM]	4%	7%[46.1 µM]	-1%	/	/
O=C1c2ccccc2C(=O)N1Cc1nc(-c2ccccn2)no1	-0.7%	/	14%	8%	4%	24%	-3%	-7%
CCN(CC)S(=O)(=O)c1cccc(C(=O)NCC2CCCCC2)c1	/	-1%	-24%[46.1 µM]	-5%	/	-25%	-7%	/
NC(=O)c1nsc(C(=O)N(CC(=O)NC2CCCC2)c2ccc(F)c(Cl)c2)c1N	/	2%	-24%[46.1 µM]	-6%	-5%[46.1 µM]	14%	4%	/
O=C(CCC1CCCCC1)Nc1c2c(nn1-c1ccc(F)cc1)CS(=O)C2 (stereo not given)	2.0%	12%	-29%[46.1 µM]	-10%	-3%	-26%	-3%	8%
COCCCNC(=O)CC(NCCCOC)C(=O)O (stereo not given)	-0.6%	9%	6%	4%	3%	-7%	11%	5%
CCOc1ccc(CNC(=O)c2ccc3nc(Cc4ccc(OC)cc4)oc3c2)cc1OC	-5.1%	/	/	/	-24%[46.1 µM]	-1%	/	?
O=C(COc1ccc([N+](=O)[O-])cc1)NC(C(=O)O)C(O)c1cccc([N+](=O)[O-])c1 (stereo not given)	/	1%	13%[46.1 µM]	7%	/	8%	2%	/
CCOCCCn1c(C)nc2c(c1=O)c1nc3ccccc3nc1n2CCC1=CCCCC1	-9.1%	?	10µM*	1%	?	?	?	?

Screening results from PubChem BioAssay.
